Bioassay records as filed in PubChem.
Mtb growth: M. tuberculosis H37Rv growth inhibitors, H37Rv strain (AID 1626); M. tuberculosis H37Rv growth inhibition; higher % means a stronger effect; one-dose inhibition, % at 10 µM; IC50 in µM for titrated hits; hit rate 0.95% among 220,000;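 active means confirmed in a dose series; inconclusive means inhibition above 80% but not taken into the dose series; inactive means below 80% or under 30% at every dose of the series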;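 further: bacteria incubated seven days before Alamar blue readout; 0% = bacteria only wells and 100% = bacteria with antibiotic wells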
RecA intein inh: Mtb RecA intein splicing inhibition; AID 2221; inhibition, %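 (about 9 µM by stock and volumes)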; hit rate 0.75% among 290,000; cell-free RecA intein splicing, fluorescence; P9WHJ3; in the data active means inhibition above about 30%; inconclusive means no clear call, values can overlap the other calls;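 further: 0% = vehicle wells and 100% = reference inhibitor control wells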
Target sequence (P9WHJ3 whole entry, looked up): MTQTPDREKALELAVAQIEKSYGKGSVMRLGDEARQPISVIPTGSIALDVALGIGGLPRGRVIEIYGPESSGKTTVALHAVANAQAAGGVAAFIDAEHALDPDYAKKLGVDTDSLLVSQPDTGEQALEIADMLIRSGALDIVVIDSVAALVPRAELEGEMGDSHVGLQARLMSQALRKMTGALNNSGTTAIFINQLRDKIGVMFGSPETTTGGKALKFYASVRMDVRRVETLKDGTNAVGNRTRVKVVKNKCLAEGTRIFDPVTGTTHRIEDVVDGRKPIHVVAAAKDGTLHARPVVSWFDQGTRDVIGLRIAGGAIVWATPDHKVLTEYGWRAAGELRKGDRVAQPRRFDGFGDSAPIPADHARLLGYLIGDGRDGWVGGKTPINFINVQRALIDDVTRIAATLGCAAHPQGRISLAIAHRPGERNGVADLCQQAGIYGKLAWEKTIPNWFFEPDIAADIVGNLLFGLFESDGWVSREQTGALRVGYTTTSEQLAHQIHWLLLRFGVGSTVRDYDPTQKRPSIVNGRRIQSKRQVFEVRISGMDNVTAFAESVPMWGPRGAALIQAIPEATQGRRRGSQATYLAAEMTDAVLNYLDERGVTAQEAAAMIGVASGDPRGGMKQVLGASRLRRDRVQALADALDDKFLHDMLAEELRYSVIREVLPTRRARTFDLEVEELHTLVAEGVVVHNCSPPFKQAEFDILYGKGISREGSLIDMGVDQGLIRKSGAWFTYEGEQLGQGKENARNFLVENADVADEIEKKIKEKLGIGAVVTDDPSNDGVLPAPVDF
Arbovirus inh: antivirals against arbovirus infection; arbovirus infection cell-based antiviral screen; AID 1251; hit rate 0.37% among 200,000; inhibition, % at 10 µM;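 active means inhibition from about 30%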;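 further: bluetongue infection of BSR cells; cell survival read as ATP light after 72 h; 0% = infected wells without compound and 100% = uninfected wells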
YopH inh: inhibitors of Yersinia enterocolitica YopH tyrosine phosphatase | fluorescence Ex485/Em525 | inhibition, %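 (about 10 µM by stock and volumes)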 | hit rate 0.16% among 140,000;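 active means inhibition of 50% or more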;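 further: controls were vehicle for no effect and minimum signal wells for full effect; inactives centre near -20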
Mtb bLac sens: beta-lactam sensitization of Mtb H37Rv; M. tuberculosis H37Rv growth with meropenem, percent inhibition; hits of this screen are not shown here; inhibition, % at 25 µM; hit rate 0.27% among 330,000; AID 434955;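 active means about 74% or more and at least 40 points above the plate without the antibiotic, then above 30% in a dose series; inconclusive means first-round hits that could not be retested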;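 further: growth measured after seven days incubation then overnight dye step; 0% = bacteria only wells and 100% = bacteria with antibiotic; twin plates without the antibiotic show which effects depend on it; some results filed as inactive read as strong as hits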
Arbovirus inh repeat: second read-out of Arbovirus inh, no call of its own (marks repeat the call); inhibition, %; measured here: 10K subset replicate screen; many hits read low in the repeat;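 first of two repeat runs on a subset; 0% = infected and 100% = uninfected wells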
The depositor's hits bear a star; ? = inconclusive; . = not tested or not shown.

SMILES	Mtb growth	RecA intein inh	Arbovirus inh	YopH inh	Mtb bLac sens	others
COc1ccc(Oc2c(C)nc(SCC(=O)c3ccc(Cl)cc3)[nH]c2=O)cc1	.	-0.8	.	.	3
Cc1ccc(CS(=O)(=O)c2nsc(C)c2C#N)cc1	.	0.9	5	.	-3
Cc1cc(C)n(-c2ccc(C(=O)NC3CCCCC3)cc2)n1	-6%	1.2	-4	.	-8
O=C(NCc1ccc(F)cc1)C1CCN(C(=O)NCc2ccccc2)CC1	0%	0.9	8	-29	9
Cc1c(C)c(C)c2[nH]c(-c3ccc4c(c3)OCO4)nc2c1C	.	-1.6	.	.	97
CCC1CCCCN1C(=O)CSc1nc(N)c(NC(=O)c2ccco2)c(=O)[nH]1 (stereo unspecified)	1%	-2.6	1	-31	-4	Arbovirus inh repeat=1
CC/C(=N\NC(=O)c1cc(C)nc2ccccc12)c1ccc(C)s1	-6%	-4.8	-5	-30	-5
CCCCCC(=O)Nc1ccc(-c2cn3cccnc3n2)cc1	2%	-6.6	4	.	-14
COc1ccccc1NC(=O)CN(Cc1ccco1)C(=O)c1ccc(-n2nc(C)cc2C)cc1	3%	-8.6	-4	-41	3
CCOc1ccccc1C(=O)OCC(=O)Nc1ccc(N2CCCCC2)cc1	-7%	-11	-2	-17	?
CC(O)CNCCOc1ccccc1OCc1ccccc1 (stereo unspecified)	1%	-0.1	-2	.	-4
O=C1CSC(c2ccccc2)N1Cc1ccccn1 (stereo unspecified)	.	0.6	.	.	9
C/[N+]([O-])=C\c1coc2ccccc2c1=O	1%	1.5	3	-8	-8
NNC(=O)[C@@H]1C[C@@H]1c1ccccc1	-2%	-2.1	-5	-20	1
CCOC(=O)CSc1nnc(CNC(=O)c2ccc(S(=O)(=O)N3CCOCC3)cc2)n1C	2%	-0.8	3	.	-1
CC(c1ccccc1)N1CC(C(=O)N2CCN(c3ccc(F)cc3)CC2)CC1=O (stereo unspecified)	-5%	-2.4	0	-15	-17
CCNC(=O)CN(c1ccc(Br)c(C)c1)S(C)(=O)=O	-9%	-0.9	0	.	-10
Cc1ccc(S(=O)(=O)N2CCN(C(=O)COC(=O)CCOc3ccccc3C)CC2)cc1	.	-1.0	.	.	1
COc1ccc(/C=C(/NC(=O)c2ccccc2)c2nc3ccccc3[nH]2)cc1OC	1%	3.5	7	-12	-6
COC(=O)c1cc(C(=O)OC)[nH]n1	-3%	-1.4	2	.	1
Cc1ccc2cc(/C=C3\N=C(c4ccccc4)OC3=O)c(N3CCOCC3)nc2c1	-1%	-3.4	-6	-43	35
OCCCNCc1ccc(N(c2ccccc2)c2ccccc2)cc1	.	11	.	.	-3
O=c1c2ccccc2[nH]c(=S)n1CC1CCCO1 (stereo unspecified)	6%	-2.0	.	-27	5
COc1ccc(C(C(=O)NC(C)(C)C)N(C(=O)CCC(=O)Nc2cc(C)on2)c2cc(C)cc(C)c2)cc1 (stereo unspecified)	.	-0.4	.	.	-7
COc1ccccc1/C=C/C(=O)OCCN1CCOCC1	-5%	-2.3	-5	-34	-1

Compounds listed so far that have a halogen, in the order listed:
SMILES	Mtb growth	RecA intein inh	Arbovirus inh	YopH inh	Mtb bLac sens	others
COc1ccc(Oc2c(C)nc(SCC(=O)c3ccc(Cl)cc3)[nH]c2=O)cc1	.	-0.8	.	.	3
O=C(NCc1ccc(F)cc1)C1CCN(C(=O)NCc2ccccc2)CC1	0%	0.9	8	-29	9
CC(c1ccccc1)N1CC(C(=O)N2CCN(c3ccc(F)cc3)CC2)CC1=O (stereo unspecified)	-5%	-2.4	0	-15	-17
CCNC(=O)CN(c1ccc(Br)c(C)c1)S(C)(=O)=O	-9%	-0.9	0	.	-10

Additional records:
SMILES	Mtb growth	RecA intein inh	Arbovirus inh	YopH inh	Mtb bLac sens	others
COc1ccc(NS(=O)(=O)c2cccc(C(=O)NNC(=O)c3cccc(NC(C)=O)c3)c2)cc1	.	-3.4	.	.	0
Cc1cccc(N2C(=O)CC(SC(N)=Nc3ccccc3)C2=O)c1 (stereo unspecified)	-1%	.	-3	.	4
CC(=O)N(C(C)=O)N1C(=O)C2C3c4ccccc4C(c4ccccc43)C2C1=O (stereo unspecified)	0%	0.9	4	.	-2
c1ccc(N2CCN(c3nc(NCc4ccco4)c4ccccc4n3)CC2)cc1	9.7µM*	17	-34	-11	99
CNC(=O)c1c(O)c2cccc3c2n(c1=O)CCC3	.	0.8	.	.	-1
COCCn1nnnc1C(c1cccc(C#N)c1)N1CCCCCC1 (stereo unspecified)	8%	1.5	0	-35	-4
O=C(OCC(=O)N1CCCC1=O)c1ccc(O)cc1O	.	0.5	.	.	0
CC(=O)Nc1ccc(NC(=O)COC(=O)CCCc2c[nH]c3ccccc23)cc1	.	-6.2	.	.	0
Cc1nnc(NC(=O)c2ccc(S(=O)(=O)N(C)Cc3ccccc3)cc2)o1	70%	1.6	-14	-56	61
CCCCN(C)C(=O)c1cc2cc3ccc(OC)cc3nc2s1	4%	-0.4	-14	-30	6
c1ccc(CNc2nc(-c3ccccn3)nc3ccccc23)cc1	.	18	.	.	78
CC1CCN(S(=O)(=O)c2ccc(C(=O)Nc3ncccc3O)cc2)CC1	.	-1.7	.	.	-15
Cc1ccc(-n2ccnc2SCC(=O)O)c(C)c1	-5%	-0.9	8	-21	0
COc1cccc(C(=O)C2CCCN(C(=O)c3ccccc3Cl)C2)c1 (stereo unspecified)	.	1.4	.	.	-5
O=C(NCc1ccccc1Cl)c1ccc2c(c1)OCO2	.	-0.1	.	.	-3
BrC(=C\c1ccccc1)/C=N/N1CCN(c2ccccc2)CC1	5%	3.1	3	.	6
Cc1ccc(C(C)C)c(OCC(=O)Nc2sc3c(c2C#N)CC(C)(C)NC3(C)C)c1	.	0.3	.	.	7
N#C/C(=C1/CCCCCN1)c1nc2ccccc2[nH]1	-9%	4.3	3	-28	-3
Cc1ccc(NC(=O)c2nc[nH]c2C(=O)N[C@@H](C)c2ccccc2)cc1	2.2µM*	11	-20	.	79
CCOCC(=O)Nc1c(C(=O)Nc2ccccc2OC)oc2ccccc12	7%	-6.8	-8	-45	-7
Cc1oc(-c2cccc(Cl)c2)nc1CS(=O)(=O)CC(=O)NCc1ccco1	.	0.3	.	.	8
COc1ccc(C2=NN(C(=O)c3ccccc3)C(c3cccc([N+](=O)[O-])c3)C2)cc1 (stereo unspecified)	6%	-1.6	.	.	13
Cc1ccc(C(=O)N/C(=C/c2ccco2)C(=O)N2CCCCC2)cc1	.	-1.9	.	.	-2
C=CCNC(=O)c1ccc(CSc2nc3ccccc3s2)cc1	.	0.7	.	.	3
CCC(C)c1ccccc1NC(=O)CN(C)CCOc1ccc(Cl)cc1 (stereo unspecified)	.	21	.	.	0

(continued)
SMILES	Mtb growth	RecA intein inh	Arbovirus inh	YopH inh	Mtb bLac sens	others
CC(C)(C)c1nc(CN2CCOCC2)cc(CN2CCOCC2)c1O	-7%	.	5	-3	-5
CCc1[nH]nc(C(=O)N2CCCC(CCC(=O)N3CCN(c4ccccn4)CC3)C2)c1C (stereo unspecified)	-3%	-1.5	-2	.	-3
Fc1ccccc1N=C1Nc2cccc3cccc1c23	-3%	2.5	0	.	-6
CCCc1n(CC(O)COCC2CC=CCC2)c2ccccc2[n+]1C (stereo unspecified)	2%	0.8	-3	.	-10
CCCCCN(C(=O)CCC(=O)OCC(=O)Nc1ccc(C)cc1F)c1c(N)n(CCCC)c(=O)[nH]c1=O	.	0.4	.	.	-1
Cc1ccc(NC(=O)CCc2nnc3ccc(NCc4ccco4)nn23)nc1	.	-2.7	.	.	6
O=c1[nH]c(C2CCN(S(=O)(=O)c3ccc4c(c3)OCCO4)CC2)nc2c1nnn2Cc1ccccc1F	.	5.7	.	.	81
COc1cccc(/C=C/C(=O)OCC(=O)N2c3ccccc3NC(=O)C2(C)C)c1	3%	-4.0	6	-16	6
Cc1nnc(OC(C)C)c2nn(-c3ccccc3F)c(C)c12	-7%	-0.8	5	-16	-12
Cc1ccc(NCC(=O)N/N=C/c2ccc(C(=O)O)cc2)cc1	12%	2.8	.	.	-3
O=[N+]([O-])c1cc(C(F)(F)F)ccc1N1CCN(S(=O)(=O)c2ccc3c(c2)CCCC3)CC1	0%	3.9	15	-11	6
O=C(CSc1ccc(Br)c2cccc(Cl)c12)Nc1ccc(S(=O)(=O)Nc2nccs2)cc1	-4%	-1.9	-14	.	0
COc1cccc(OC)c1C(=O)N1CCN(Cc2ccncc2)CC1	-4%	-2.2	2	-95	-9
FC(F)(F)c1cnc(NNC(=S)Nc2cccnc2)c(Cl)c1	4%	-7.8	-8	.	2
COc1cccc(C2CC3(CC(C)(C)NC(=S)N3)Oc3cc(O)ccc32)c1 (stereo unspecified)	2%	5.3	-5	-11	2
CCC(=O)Nc1ccc(-c2ccc(N3CCC(C)CC3)nn2)cc1	.	1.8	.	.	?
Cc1ccc(S(=O)(=O)N(CC(=O)NCc2ccc(F)cc2)C(=O)N2CCN(C)CC2)cc1	.	-0.4	.	.	-12
CCOC(=O)C1CCN(C(=O)CC(C)c2ccccc2)CC1 (stereo unspecified)	0%	0.0	7	-17	2
COc1cc(C(=S)N2CCCC2)cc(Cl)c1O	-5%	-1.5	3	-24	1
O=C(CCn1ccc2ccccc21)NC1CCCc2ccccc21 (stereo unspecified)	3%	-2.7	5	8	3
Cc1cc2cc(CNC(=S)Nc3ccc(OC(F)F)cc3)ccc2n1C	.	1.6	-2	-23	1
O=S1(=O)NC(=NCCc2ccccn2)c2ccccc21	4%	1.5	8	.	-6
CCC(=O)Nc1cc(C(=O)O)ccc1Sc1ccc(C)cc1	-8%	0.6	9	.	-2
COC(=O)c1ccc(NC(=O)c2ccccc2C(=O)Nc2ccc(C(=O)OC)cc2)cc1	.	-1.8	.	.	94
O=C(OCCOCn1cc(Br)c(=O)[nH]c1=O)c1ccccc1	.	1.3	.	.	-14

3 entries already listed, sorted by molecular weight, ascending:
SMILES	Mtb growth	RecA intein inh	Arbovirus inh	YopH inh	Mtb bLac sens	others
Cc1ccc(NCC(=O)N/N=C/c2ccc(C(=O)O)cc2)cc1	12%	2.8	.	.	-3
O=C(CCn1ccc2ccccc21)NC1CCCc2ccccc21 (stereo unspecified)	3%	-2.7	5	8	3
O=[N+]([O-])c1cc(C(F)(F)F)ccc1N1CCN(S(=O)(=O)c2ccc3c(c2)CCCC3)CC1	0%	3.9	15	-11	6

The listing picks up, starting 6 compounds before the break.
SMILES	Mtb growth	RecA intein inh	Arbovirus inh	YopH inh	Mtb bLac sens	others
O=C(CCn1ccc2ccccc21)NC1CCCc2ccccc21 (stereo unspecified)	3%	-2.7	5	8	3
Cc1cc2cc(CNC(=S)Nc3ccc(OC(F)F)cc3)ccc2n1C	.	1.6	-2	-23	1
O=S1(=O)NC(=NCCc2ccccn2)c2ccccc21	4%	1.5	8	.	-6
CCC(=O)Nc1cc(C(=O)O)ccc1Sc1ccc(C)cc1	-8%	0.6	9	.	-2
COC(=O)c1ccc(NC(=O)c2ccccc2C(=O)Nc2ccc(C(=O)OC)cc2)cc1	.	-1.8	.	.	94
O=C(OCCOCn1cc(Br)c(=O)[nH]c1=O)c1ccccc1	.	1.3	.	.	-14
O=C(C1CCC(=O)N(C2CCCC2)C1)N1CCC(Oc2ccccc2Cl)CC1 (stereo unspecified)	.	-1.1	.	.	-7
COc1nc(OC)nc(N2CCC(C(=O)NC3CCCCCC3)CC2)n1	-12%	14	4	-21	-4
CCn1c2ccccc2c2cc(NC(=O)c3cc(OC)c(OC)c(OC)c3)ccc21	0%	4.1	-31	-11	3
Cc1cc(NC(=O)CSC2=Nc3ccccc3C3=NC(Cc4ccccc4)C(=O)N23)n[nH]1 (stereo unspecified)	-6%	3.9	-4	6	-5
CCN(Cc1ccccc1)C(=O)c1cc(COc2c(F)cccc2F)on1	10%	4.8	.	.	-6
CC(C)(C)C1CCc2onc(C(=O)N3CCOCC3)c2C1 (stereo unspecified)	7%	-1.2	0	-49	12
O=C(CCNC(=O)c1ccco1)NCc1ccccc1	0%	0.7	3	-17	-1
NNC(=O)c1ccc(Cl)cc1	-19%	-0.2	-5	-14	-2
COc1ccccc1Nc1c2c(nc3ccccc13)CCC2	.	1.0	.	.	-3
COC(=O)c1ccc(CSc2nnc(C)n2N)o1	13%	-0.1	-3	-7	5
COc1cccc(N2CC(NS(=O)(=O)c3cccs3)CC2=O)c1 (stereo unspecified)	.	1.5	.	.	-3
Cc1cccc(OCCn2c(S(=O)(=O)O)nc3ccccc32)c1	-5%	-1.9	10	-20	3
NNC(=O)Cn1nnc(-c2ccc(C(F)(F)F)cc2)n1	0%	-1.5	.	.	2
O=C(Nc1ncccc1O)c1ccc(S(=O)(=O)N2CCCCCC2)cc1	.	-0.9	.	.	1
CC(=O)N1CCN(C(=O)c2ccc(NS(=O)(=O)c3ccc4c(c3)OCCO4)cc2)CC1	.	-1.3	.	.	-2

Only part of the results is shown; rates above refer to the full screens.
